gsp antagonist – antagonizes gsp, the McCune-Albright syndrome mutation; gsp-mutant cells, cAMP HTRF, 30 min; control for the full effect not named in the record; Potency, µM (titrated, usually from 76.9 µM), for inactives: top-dose activity change, negative = inhibition, usual class: inhibitors; hit rate 0.4% among 340,000; AID 624288; active = falling curve of any shape with a large fitted effect; inconclusive = falling curve, mostly with a smaller effect; inactive = flat or rising curve; cell line not stated here;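 also: intracellular cAMP measured with PDE inhibitor Ro 20-1724 present during compound exposure; potency is read from the fitted curve at half-maximal effect; % is scaled to controls: 0 for no effect and ±100 for the full control effect; nearly all actives have a fitted effect of over 65% in size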
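HTRF cAMP read-out (cAMP-d2 plus anti-cAMP antibody-K in lysis buffer, 30 min RT). Before lysis, cells are exposed to compounds with […] for 30 min at 37C in DPBS containing Ca/Mg, BSA and Tween 20.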
Menin MLL FP FL – inhibitors of human menin-MLL interaction, wild-type MLL peptide. FP activity change, % at 61.4 µM. 290,000 tested, under 10 active. Fluorescence polarization, fluorescein-MLL peptide displacement from menin; inconclusive = falling polarisation curve, or a change in total fluorescence; inactive = total fluorescence flat and polarisation flat or rising; no compound was filed as active; the % refers to the polarisation; negative = inhibition;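 also: % of control where 0% means no effect; inhibitors lower the polarisation; unlabelled MLL peptide was the positive control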
ClpP mod – qHTS Assay for Activators of ClpP | ATP-dependent Clp protease proteolytic subunit (Bacillus subtilis (strain 168)), P80244 | Potency, µM (series often up to 57.5 µM), without a hit: at the highest dose activity change, negative = active | hit rate 1.9% among 340,000 | purified B. subtilis ClpP, FRET peptide cleavage, 20 min; active = well fitted falling curve with a large enough effect; inconclusive = small, poorly fitted or top-dose-only effect; inactive = no such curve, though single readings can be large or run the other way; also: potency is read from the fitted curve at half-maximal effect; the source files actives as falling curves though it sought activators and does not explain the sign; nearly all actives have a fitted effect of over 65% in size; many hits overshoot -100%
Target sequence (P80244 whole entry, looked up): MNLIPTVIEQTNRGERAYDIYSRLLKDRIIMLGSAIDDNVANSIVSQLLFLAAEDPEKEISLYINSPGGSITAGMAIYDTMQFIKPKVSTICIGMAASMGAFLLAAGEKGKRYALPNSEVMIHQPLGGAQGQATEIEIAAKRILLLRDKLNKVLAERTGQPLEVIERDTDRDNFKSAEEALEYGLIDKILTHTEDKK
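ClpP 10 microg/mL final, pH 8 Tris/KCl buffer with BSA, glycerol, Tween-20; compound pinned in; FRET-FV substrate; RT 20 min; Ex320/Em430; ΔFRET vs ADEP 5.8 microM, DMSO, no enzyme.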
gsp agonist – agonists of gsp mutant (McCune-Albright syndrome); gsp mutant cells, cAMP HTRF, 30 min; control for the full effect not named in the record; Potency, µM (highest dose often 76.9 µM), for the others: at the top dose activation (cAMP increase), most hits filed as activators; hit rate 0.13% among 340,000; AID 624287; active = well fitted activation curve with a large enough effect; inconclusive = small, poorly fitted or top-dose-only effect, or another doubt; inactive = no such curve, though single readings can be large or run the other way; cell line not stated here;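 also: phosphodiesterase inhibitor Ro 20-1724 added with compounds to block cAMP breakdown; potency is read from the fitted curve at half-maximal effect; nearly all actives have a fitted effect of over 60% in size; about a fifth of the inactives were tested at one dose only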
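Cells in DMEM/10% FBS with G418 were pretreated with compounds in DMSO plus […] (300 uM stock) for 30 min at 37C. cAMP was measured by HTRF (cAMP-d2 plus anti-cAMP antibody-K) after 30 min at room temperature.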
Sfp PPTase inh – blocks B. subtilis Sfp PPTase activity; Biochemical Sfp PPTase activity, qHTS; AID 1490; Q9F4F7; hit rate 3.5% among 310,000; Potency, µM, without a hit: max response, negative = inhibition, hits mostly inhibitors; active = well fitted inhibition curve with a large enough effect; inconclusive = small, poorly fitted or top-dose-only effect, or another doubt; inactive = no such curve, though single readings can be large or run the other way;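 also: the enzyme is Sfp with the accession as filed and its product quenches rhodamine fluorescence; potency is read from the fitted curve at half-maximal effect; 0% = enzyme reaction without inhibitor and -100% = no enzyme wells; top concentration of the series not given in the record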
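Fluorescence-quenching assay: 15 nM Sfp-PPTase preincubated 15 min at room temperature with compound, then 5 uM rhodamine-CoA and 12.5 uM BHQ-2-labelled YbbR peptide added. Fluorescence (ex 525/em 598 nm) read at start and after 30 min; difference gives rate.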
CtBP-E1A blk – inhibitors of CtBP/E1A interaction; activity change, % (no concentration beside the values); hit rate 0.49% among 340,000; AlphaScreen GST-E1A/His-CtBP binding, 1536-well; active compounds read low; control for the full effect not named in the record; in the data active means activity change below about -65%; inconclusive means about -30% to -65%; inactive means above about -30%; also: % is scaled to controls: 0 for no effect and ±100 for the full control effect
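GST-E1A and His-tagged CtBP (125 nM each as 5X stock) were preincubated with pin-transferred compound for 2 h at 37 °C in the dark, then glutathione donor and nickel acceptor beads were added for 1 h before AlphaScreen reading.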
TRPV1 PAM – enhances activation of the human vanilloid receptor TRPV1; Q8NER1; potentiation, % at 8.33 µM; hit rate 0.02% among 320,000; AID 540277; TRPV1-expressing cells, Fluo-8 calcium influx, capsaicin EC20 potentiation; host cell line not named in the record; control for the full effect not named in the record; active means potentiation above 80%; inconclusive means 30% to 80%; inactive means below 30%; also: 0% is about no effect
Target sequence (Q8NER1 whole entry, looked up): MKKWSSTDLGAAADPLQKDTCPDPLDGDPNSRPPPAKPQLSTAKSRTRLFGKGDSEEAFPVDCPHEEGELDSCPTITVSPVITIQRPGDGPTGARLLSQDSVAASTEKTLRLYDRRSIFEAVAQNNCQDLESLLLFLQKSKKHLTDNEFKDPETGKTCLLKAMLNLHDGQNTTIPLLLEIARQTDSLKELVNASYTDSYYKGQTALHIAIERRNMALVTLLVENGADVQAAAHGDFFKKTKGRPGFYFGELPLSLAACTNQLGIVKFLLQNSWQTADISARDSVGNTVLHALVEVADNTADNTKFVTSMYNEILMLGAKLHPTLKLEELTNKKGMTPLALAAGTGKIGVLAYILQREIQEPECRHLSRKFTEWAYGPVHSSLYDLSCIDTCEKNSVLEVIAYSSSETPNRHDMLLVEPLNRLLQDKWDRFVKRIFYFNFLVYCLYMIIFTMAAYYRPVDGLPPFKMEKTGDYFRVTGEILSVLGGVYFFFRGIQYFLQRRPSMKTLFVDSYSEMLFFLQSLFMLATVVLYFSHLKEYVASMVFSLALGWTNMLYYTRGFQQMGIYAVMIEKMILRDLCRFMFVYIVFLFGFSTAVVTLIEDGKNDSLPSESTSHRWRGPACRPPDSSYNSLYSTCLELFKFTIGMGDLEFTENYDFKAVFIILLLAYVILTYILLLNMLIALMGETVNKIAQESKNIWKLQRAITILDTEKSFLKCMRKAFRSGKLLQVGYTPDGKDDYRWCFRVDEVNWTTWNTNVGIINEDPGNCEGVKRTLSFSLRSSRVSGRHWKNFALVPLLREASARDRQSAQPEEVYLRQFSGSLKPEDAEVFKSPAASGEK
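Fluo-8 calcium influx in TRPV1-expressing cells, kinetic read (ex 480/em 520 nm). Compound added and read 3 min for agonist activity, followed by capsaicin at EC20 final and 2 min further read for enhancement.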
Active calls of the source: *; ? = inconclusive; . = not tested or not shown; & = joins results of further samples; [ ] = dose if it differs, or a comment.

Screens in order: gsp antagonist	Menin MLL FP FL	ClpP mod	gsp agonist	Sfp PPTase inh	CtBP-E1A blk	TRPV1 PAM
- CNC(=S)N1N=C(c2ccc(OC)cc2)CC1c1ccc(Cl)cc1Cl (stereo not given)
    -9%	11	.	?	1%	0	8
- COc1ccc(-c2cn(CCC(=O)O)c(-c3ccncc3)n2)cc1
    8%	.	-6.4%	.	.	-8	-6
- O=C1CC2(CCN(C(=O)c3ccc(Cl)cc3)CC2)Oc2ccccc21
    -10%	.	.	19%[15.4 µM]	.	5	-10
- Cc1ccc(NC2=NCC(=O)N2C2CCCC2)cc1C
    3%	0.0	.	-30%[15.4 µM]	14%	-16	4
- COc1cc(CC(=O)OCC(=O)NCC(C)C)cc(OC)c1OC
    4%	0.4	.	21%	4%	6	23
- CN(C)S(=O)(=O)c1ccc(F)c(C(=O)Nc2ccccc2C(=O)NC2CC2)c1
    -4%	.	-2.5%	-2%	.	-3	-3
- CC(C)c1nc2scc(-c3ccc(Cl)cc3)c2c(=O)n1N
    -10%	-2.1	-0.7%	4%	-12%	1	8
- CCCCC1(CC)C(=O)NC(=O)NC1=Nc1ccc(OC)cc1 (stereo not given)
    1%	-0.2	1.2%	1%	14%	-1	-6
- COc1cc(Cl)c(S(=O)(=O)N2CC(C)OC(C)C2)cc1Cl (stereo not given)
    -17%	1.6	-1.7%	20%	2%	3	-7
- COCC(C)n1c(SCC(=O)NNC(=O)c2ccc(F)cc2)nc2ccccc2c1=O (stereo not given)
    7%	-2.3	-4.6%	10%[15.4 µM]	9%	8	5
- O=S(=O)(c1ccccc1)C(Br)S(=O)(=O)c1ccccc1
    .	.	-1.1%	9%	.	-17	.
- CCOC(=O)C1CCCN(C(=O)c2cc(Nc3ccc(OC)cc3)nc3ccccc23)C1 (stereo not given)
    ?	2.2	-0.7%	-27%	-8%	-5	21
- O=C(Nc1cc(F)cc(F)c1)c1sc(Cl)nc1-c1ccccc1
    -7%	9.8	-12%	37%[15.4 µM]	10%	14	9
- COc1ccc2oc(=O)c(C(=O)Nc3ccccc3C)cc2c1
    -16%	7.2	-1.7%	-23%	?	.	0
- O=C(Nc1ccccc1C(=O)Nc1ccccn1)c1ccc([N+](=O)[O-])cc1
    -8%	1.7	32µM*	0%[15.4 µM]	-15%	0	-2
- Cc1cccc(CN2CCC(CNC(=O)Nc3ccc(F)c(Cl)c3)CC2)c1
    -7%	-3.3	-0.7%	1%[15.4 µM]	1%	1	-19
- CCC(C(=O)OCC(=O)C1(O)CCC2C3CCC4=CC(=O)CCC4(C)C3C(O)CC21C)C(C)C (stereo not given)
    ?	.	-0.6%	-18%	.	-4	.
- CCCc1nnc(SCC(=O)NC2CCCCC2)n1CCOC
    7%	0.2	.	-8%[15.4 µM]	-3%	-4	24
- O=C(COC(=O)/C=C/c1ccccc1Cl)NC1CCCCCC1
    4%	-3.6	2.6%	29%	11%	10	-19
- COc1ccc(OCCCC(=O)Nc2ccc(N3CCCCC3)cc2)cc1
    6%	-2.8	-0.7%	-42%[inhibitor]	-7%	5	-8
- O=C(N/N=C/c1cn(-c2ccccc2)nc1-c1ccc(F)cc1)c1ccc(Br)o1
    ?	3.8	-26%	-10%	8%	-1	-6
- Cc1ccc(C(=O)NCC(C)NC(=O)c2ccc(C)c([N+](=O)[O-])c2)cc1[N+](=O)[O-] (stereo not given)
    -9%	.	-0.2%	-26%[15.4 µM]	.	-13	.
- COc1ccc(CNC(=O)COc2ccc(OC)cc2)cc1
    2%	2.3	0.1%	0%	1%	-3	16
- COc1cc(/C=N/Nc2ccc([N+](=O)[O-])cn2)cc(OC)c1O
    0%	-0.3	.	-17%[15.4 µM]	-7%	-11	-5
- COc1ccc(C2CC(c3ccccc3Cl)Nc3ncnn32)cc1OC (stereo not given)
    3%	3.7	0.7%	?	-13%	2	2
- Cc1nc2ccccc2c2c1C(=O)N(c1cccc(C(=O)O)c1)C2=O
    -11%	-0.4	.	1%	6%	6	-3
- O=C(CN1C(=O)NC2(CCCCCC2)C1=O)NC1CC1
    5%	-0.4	7.1%	-11%[15.4 µM]	12%	-10	4
- CCN(CC)c1ccc(C(=O)OCC(=O)N(C)Cc2ccccc2)cc1
    -18%	0.4	-4.5%	6%[15.4 µM]	1%	-3	-9
- Cc1cn(C2CCC(CO)O2)c(=O)[nH]c1=O (stereo not given)
    10%	0.9&-1.4	-2.1%	?	13%&1%	-19	6
- O=P(O)(O)c1cc(-c2ccccc2)oc1-c1ccccc1
    -3%	2.7	.	?	14%	9	5
- COc1cc(NC(=S)NCCCN2CCOCC2)c(OC)cc1Cl
    3%	-6.5	.	17%	13%	7	1
- Cc1cc(N(C)C)ccc1N=Nc1ccc2ncccc2c1
    3%	8.5	-0.6%	14%	45µM*	.	-11
- O=S(NCc1ccccc1)C12CC3CC(CC(C3)C1)C2 (stereo not given)
    4%	5.0	-1.2%	3%	18%	6	-25
- O=C(Cn1cc(C(=O)C(F)(F)F)c2cc(Br)ccc21)N1CCOCC1
    -5%	-0.5	-2.1%	1%	23%	.	-29
- O=C(CCNC(=O)c1ccccc1Cl)NCc1ccncc1
    7%	.	-0.9%	13%[15.4 µM]	.	-16	-12
- O=C(O)CSc1nc2c(c(=O)[nH]1)CCCC2
    5%	-0.2	0.6%	-7%	21%	3	17
- C/C(=N\O)c1ncc(C(F)(F)F)cc1Cl
    7%	0.0	.	-16%[15.4 µM]	3%	-15	2
- Cc1cc(C)c(N2C(=NC(=O)CCCC(=O)O)SC3CS(=O)(=O)CC32)c(C)c1 (stereo not given)
    -1%	0.5	-1.6%	-38%[inhibitor]	6%	3	-1
- C/C(=N\NC(=O)C(C)Sc1ccccc1)c1ccc([N+](=O)[O-])cc1 (stereo not given)
    0%	1.2	-2.1%	-3%	9%	.	-10
- O=C(CCN1C(=O)/C(=C/c2ccccc2F)SC1=S)NC1C=CS(=O)(=O)C1 (stereo not given)
    -7%	-2.4	0.4%	1%	-20%	.	2
- Cc1ccc(NC(=O)c2ccc3c(c2)OCCO3)cc1
    2%	3.7	-2.3%	2%	-7%	0	-20
- N=C1c2ccccc2CN1NC(=O)c1cccc(S(=O)(=O)N2CCCCC2)c1
    12%	8.8	.	3%	16%	-10	-1
- CC(=O)c1sc2nc(-c3cccs3)ccc2c1N
    5%	1.0	-21%	14%	50µM*	2	5
- Cc1ccc(C(C)C)c(O)c1
    7%	-0.9	-2.2%	.	12%	-4	.
- COc1ccc(N2CCN(S(=O)(=O)CCNC(=O)C(C)Oc3ccccc3)CC2)cc1 (stereo not given)
    -7%	.	-2.4%	3%[15.4 µM]	.	-1	0
- CCCn1c(C)cc(/C=C(\C#N)C(=O)OCC(=O)Nc2cccc(S(N)(=O)=O)c2)c1C
    5%	.	3.7%	-3%	.	.	4
- CC(C)[C@H](NC(=O)c1ccccc1Cl)C(=O)Nc1ccc(S(=O)(=O)Nc2nccs2)cc1
    1%	.	-2.6%	-16%	.	.	.
- CC(C)Oc1cccc(-c2cc(C(=O)NC(=S)N(C)c3ccccc3C(=O)O)c3ccccc3n2)c1
    -23%	?	6.3µM*	-29%	-51%	15	7
- Cc1nnc(SCC(=O)Nc2cc(S(=O)(=O)N3CCCC3)ccc2Cl)s1
    -1%	0.7	.	-1%[15.4 µM]	5%	1	-9
- Cc1ccccc1-c1nnc2s/c(=C\c3ccc(N(C)C)cc3)c(=O)n12
    .	?	.	.	3%	.	1
- S=c1[nH]ncn1NCc1cccc(Br)c1
    2%	.	.	-6%[15.4 µM]	.	4	.
- CCN(CC(=O)Nc1c(F)cccc1F)C(=O)C1CC(=O)N(CCc2ccc(OC)c(OC)c2)C1 (stereo not given)
    15%	.	-0.5%	5%	.	8	9
- CCOC(=O)c1c(CC(C)C)csc1NC(=O)COC(=O)c1cc(OC)c(OC)cc1[N+](=O)[O-]
    -20%	0.0	0.6%	3%	-2%	.	?
- COC(=O)c1ccc(NC(=O)C(C)Oc2ccccc2)cc1 (stereo not given)
    4%	1.4	0.5%	-30%	7%	2	-4
- O=C(NCCc1ccc(Cl)cc1)c1ccc(Br)s1
    1%	5.5	1.3%	-21%	6%	4	4
- CC(C)(C)c1cc(CCC(=O)NNC(=S)NC(=O)c2ccccc2)cc(C(C)(C)C)c1O
    -6%	1.7	0.1%	?	56µM*	-7	-16
- N#CC1=C(S)N(c2ccccc2)C2(CCCCC2)NC1=O
    -10%	-0.9	-0.6%	8%	28µM*	6	-6
- COc1ccc(C)cc1NC(=O)c1ccccc1NS(=O)(=O)c1ccc(Cl)s1
    35µM*	-0.9	2.1%	8%	19%	.	2
- O=C(NC1CCCCCC1)c1cc2n(n1)C(C(F)(F)F)CC(c1ccco1)N2 (stereo not given)
    5%	-3.2	0.3%	2%	11%	0	-14
- Cc1cc(C)c(C)c(OCc2nc(-c3cccnc3)no2)c1
    11%	3.3	1.0%	20%	23%	7	7
- COC(=O)C1=C(C)NC(=O)NC1c1cccc(OC)c1OCc1ccccc1 (stereo not given)
    -4%	-4.3	-7.4%	-1%	-4%	5	1
- CN(CC(=O)Nc1cccc2c1CCCC2)S(=O)(=O)c1ccc(Br)cc1
    -5%	0.1	0.1%	-33%[inhibitor]	24%	0	-12
- Cc1ccc(S(=O)(=O)Nc2ccc3c(c2)CC(=O)N([C@H](C)CO)C[C@H](C)[C@H](CN(C)Cc2ccc4c(c2)OCO4)O3)cc1
    -15%	.	-1.9%	25%	.	-9	.

High-throughput results (PubChem)

No enrichment for hits; overall some 5.3% were active at least once.
